Assay outcomes from PubChem.
Vaccinia Venus = inhibitors of vaccinia virus (Venus reporter); Vaccinia virus Venus reporter expression, fluorescence; Potency, µM (highest dose often 36.5 µM), for the others: at the top dose activity change, negative = inhibition, usual class: inhibitors; 0.46% of 330,000 active; active means well fitted inhibition curve with a large enough effect; inconclusive means small, poorly fitted or top-dose-only effect; inactive means no such curve, though single readings can be large or run the other way; tested in A549 cells; note: nearly all actives have a fitted effect of over 30% in size; inactives centre near -10
Vaccinia mCherry = inhibitors of vaccinia virus infection (mCherry reporter signal). Vaccinia virus mCherry reporter infection, fluorescence; about a quarter of the inactives have no number. Potency, µM (highest dose often 36.5 µM), for the others: at the top dose activity change, negative = inhibition, actives largely listed as inhibitors. 0.63% of 310,000 active. AID 720579; active = well fitted inhibition curve with a large enough effect; inconclusive = small, poorly fitted or top-dose-only effect; inactive = no such curve, though single readings can be large or run the other way; tested in A549 cells; note: nearly all actives have a fitted effect of over 35% in size; inactives centre near -10
* = called active by the depositor; i = inactive; ? = inconclusive; . = no result given; [ ] = another dose, or the depositor's remark. % is set by controls: 0 for no effect and ±100 for the full control effect; potency is the fitted concentration of half-maximal effect. Rows are unselected; about 0.82% have a hit in one of these screens.

no. | Molecule | Vaccinia Venus | Vaccinia mCherry
1 | CCOC(=O)c1cc2n(n1)C(C(F)(F)F)CC(C)N2 (configuration not stated) | -5% | .
2 | O=C(COC(=O)c1n[nH]c2ccccc12)NCCc1ccccc1 | 6% | -7%
3 | CC(C)NC(=O)CSc1nc(Cc2ccccc2)nc2ccccc12 | -22% | i
4 | Cc1c(C(=O)NCc2ccccn2)oc2ccc(S(=O)(=O)N3CCC4(CC3)OCCO4)cc12 | -8% | i
5 | CCOC(=O)c1cccc(NC(=O)N2CCC(CN3CCCCCC3)CC2)c1 | -8% | -13%
6 | COc1ccccc1NC(=S)NNC(=O)c1ccc(Cl)cc1Cl | -15% | -14%
7 | COc1ccc(F)cc1CN1CCN(CC(=O)N2CCc3ccccc32)CC1 | -12% | -18%
8 | CN(CC(=O)Nc1ccc(Cl)c(S(=O)(=O)N2CCOCC2)c1)C(=O)c1cccs1 | -15% | 0%
9 | COc1ccc(S(=O)(=O)N2CCOCC2)cc1NS(=O)(=O)/C=C/c1ccccc1 | -7% | -9%
10 | Cc1cccc(C(=O)NC(=S)NCc2ccccc2)c1 | -12% | i
11 | COc1ccc(NC(=O)CNC(=O)Cn2cnc3sc(C)c(C)c3c2=O)cc1OC | -8% | -24%
12 | COc1ccccc1NS(=O)(=O)c1cc(NC(=O)c2ccc(NC(C)=O)cc2)ccc1N1CCOCC1 | -15% | -14%
13 | Cn1c(C(=O)OCC(=O)NCC2CCCO2)cc2sccc21 (configuration not stated) | -8% | -1%
14 | CCOc1ccc(NC(=O)CSc2nncc(=O)[nH]2)cc1 | 4% | -18%
15 | Cc1ccc(S(=O)(=O)NC(=S)c2ccccc2)cc1 | -7% | -24%
16 | O=C(CSc1ccc2ccccc2c1)Nn1cnnc1 | -11% | .
17 | COC(=O)c1cccc(NC(=O)CSc2nnc(C)o2)c1 | -3% | 4%
18 | c1ccc(-c2noc(CSc3nc4ccccc4o3)n2)cc1 | -8% | -20%
19 | O=C(/C=C/c1ccc2c(c1)OCO2)NCCSCc1cccc(Cl)c1 | -22% | -14%
20 | N#C/C(=C\c1ccc(N2CCCCC2)o1)C(=O)Nc1cccc(Br)c1 | 28% | -18%
21 | COC(=O)c1ccc(Cl)c(NC(=O)CN2CCC(C)CC2)c1 | -4% | -7%
22 | COc1ccc(/C=N/NC(=O)CNC(=O)c2ccc(S(=O)(=O)N3CCOCC3)cc2)c(OC)c1 | 0% | -14%
23 | Cc1ccc(Oc2ccc(N)cc2)cc1 | -14% | -14%
24 | COc1ccc(NC(=O)CN(C)C(=O)CNC(=O)c2ccc3c(c2)OCO3)cc1 | 4% | -15%
25 | COc1cccc(Cn2c3ccc(NC(=O)Cc4ccccc4C)cc3c(=O)n2C)c1 | 0% | 14%

Remaining list, next part:
no. | Molecule | Vaccinia Venus | Vaccinia mCherry
26 | O=C(CS(=O)CC(=O)Nc1cnc2ccccc2c1)Nc1ccc(Cl)cc1 (configuration not stated) | 2% | 12%
27 | O=C(NCC1Cc2cc(-c3cnc4ccccc4c3)cc(F)c2O1)c1cnsn1 (configuration not stated) | ? | ?
28 | COc1ccc(NC(=O)c2ccccn2)cc1S(=O)(=O)N1CCOCC1 | -15% | -8%
29 | O=C1C2C3C=CC(C3)C2C(=O)N1Nc1ccccc1 (configuration not stated) | 11% | -3%
30 | O[C@@H]1CN(CC2CCCCC2)[C@@H](c2ccccc2)C[C@H]1n1cc(C2CC2)nn1 | ? | -4%
31 | O=C(N/C(=C/c1ccc(Br)cc1)C(=O)N1CCOCC1)c1ccco1 | -20% | i
32 | NC(=O)C1(N2CCCCC2)CCN(C(=S)NC2CCCC2)CC1 | -4% | -4%
33 | CCOC(=O)CSc1nnc(-c2cccnc2)n1Cc1ccccc1 | 3% | .
34 | CC(=O)N1CN2CN(C(C)=O)CC(C(=O)c3ccc(Br)cc3)(C2)C1 | 3% | .
35 | CCOC(=O)N1CCC(NC(=O)c2cccc3c2C(=O)N(c2ccc(OC)cc2)C3)CC1 | -6% | i
36 | COc1cccc(CNc2nc(C(F)(F)F)nc3ccccc23)c1 | -20% | -8%
37 | CCOc1ccc(C(=O)N[C@H](C(=O)NC2CCCCC2)C(C)C)cc1 | -29% | i
38 | Cc1cc(C)c(S(=O)(=O)N(C)CC(=O)NCC2CCCO2)c(C)c1 (configuration not stated) | -14% | -15%
39 | CCCN1CNC(=S)N(c2cccc(C)c2)C1 | -9% | -9%
40 | CC1CCCC(NC(=O)COC(=O)c2ccc([N+](=O)[O-])o2)C1C (configuration not stated) | -6% | i
41 | COc1ccc(C2=NN(C(=O)CCC(=O)O)C(c3ccc(Br)cc3)C2)cc1 (configuration not stated) | -8% | i
42 | Cc1ccc(C(=O)NNC(=O)CSc2nnc(C(C)C)n2C)cc1 | 3% | ?
43 | COc1ccc(CNC(=O)CCCCCNc2nc(=S)[nH]c3ccccc23)cc1 | -21% | -6%
44 | COc1ccccc1CNC(=O)c1oc2ccc(S(=O)(=O)N3CCCCC3)cc2c1C | -23% | -24%
45 | COc1ccc2c(c1)C(=O)[C@@H](O)[C@H](c1ccc(OC)c(Br)c1)O2 | ? | 4µM*
46 | Cc1c(C)n2c(SCC(=O)N3CCC(C)CC3)nnc2[nH]c1=O | 1% | -14%
47 | CCN(CC)S(=O)(=O)c1ccc(/C=C/C(=O)Nc2c(C)n(C)n(-c3ccccc3)c2=O)cc1 | -12% | -11%
48 | c1ccn2cc(CSC3=NCCS3)nc2c1 | -4% | -22%[1.46 µM]
49 | CCOC(=O)c1cnn(-c2cc(C)c3ccccc3n2)c1N | 4% | .
50 | O=S(=O)(c1ccc(F)cc1)N1CCN(c2nc(-c3cccnc3)nc3ccccc23)CC1 | -13% | -8%

Other structures.
no. | Molecule | Vaccinia Venus | Vaccinia mCherry
51 | CCC(=O)N1CCc2cc(S(=O)(=O)CCC(=O)Nc3cccc(F)c3)ccc21 | -7% | -14%
52 | Cc1sc2ncnc(NCC3CCCO3)c2c1C (configuration not stated) | -22% | i[1.46 µM]
53 | CC12CC(c3ccccc3O1)N(C(=O)c1ccco1)C(=O)N2c1ccccc1 (configuration not stated) | ? | .
54 | Cc1cc(N2C(=O)[C@@H]3[C@H](C2=O)[C@@H]2C[C@H]3C(Br)C2Br)no1 (some centres not stated) | -11% | -13%
55 | O=C(Nc1ccccc1)OCN1C(=O)c2ccccc2C1=O | -9% | -14%
56 | COc1ccc(S(=O)(=O)NC(CC(=O)NCCc2ccccc2)c2ccco2)cc1 (configuration not stated) | -8% | i
57 | C/C(CC(=O)NC1CCCC1)=N\NC(=O)Cc1csc(N)n1 | -5% | -5%
58 | CCn1nc(C)c(/C=C/C(=O)Nc2ccc(C)cc2C)c1C | -20% | i
59 | Cc1ccc(Cn2c(SCC(=O)NCc3ccccc3Cl)nc3ccsc3c2=O)cc1 | -18% | -17%
60 | COc1cc(-c2nc(-c3cccc(C)c3)no2)cc(OC)c1OC | -8% | -8%
61 | CCN(Cc1ccccc1)C(c1ccccn1)c1nnnn1C(C)(C)CC (configuration not stated) | -13% | i
62 | CCCn1c(NCc2ccc(N(CC)CC)cc2)nc2ccccc21 | -15% | -11%
63 | CCCCC(=O)N1CCN(c2nc3ccc(Cl)cc3s2)CC1 | -6% | -14%
64 | COc1ccc(CNc2nc(-c3cccnc3)nn2C(C)=O)cc1 | -7% | -4%
65 | NC(=O)c1cc([N+](=O)[O-])ccc1N1CCN(Cc2ccccc2)CC1 | -10% | 0%
66 | CCc1ccc(NC(=O)COc2coc(CN3CCc4ccccc4C3)cc2=O)cc1 | -11% | i
67 | c1cncc(C(c2nnnn2C2CCCCC2)N2CCCCC2)c1 (configuration not stated) | -10% | -14%
68 | O=C(CN(C(=O)c1csnn1)c1ccccc1C(F)(F)F)NC1CCCCC1 | -6% | -12%
69 | Cc1sc(NC(=O)c2ccco2)c(C(c2ccc(F)cc2)N2CCN(C)CC2)c1C (configuration not stated) | -18% | i
70 | COc1cccc(NC(=O)C(Sc2nnc3ccccn23)c2ccccc2)c1 (configuration not stated) | 2% | -3%
71 | COC(=O)[C@H]1[C@H](CCc2ccccc2)NC(=O)N(Cc2ccccc2)[C@@H]1C | -13% | ?
72 | COc1cc(C(=O)N2CCC2(C)C(=O)NC(C)C)cc(OC)c1OC (configuration not stated) | 3% | 3%
73 | N=c1c(C(=O)NC2CCCC2)cc2c(=O)n3ccccc3nc2n1CC1CCCO1 (configuration not stated) | -1% | i
74 | CCOC(=O)C1CCCN(c2nc3ccccc3nc2C(C#N)C(=O)OCCOC)C1 (configuration not stated) | -13% | .
75 | COc1ccc(/C=N/NC(=O)C(=O)N2CCCC2)cc1 | 1% | -7%

Additional results follow.
no. | Molecule | Vaccinia Venus | Vaccinia mCherry
76 | CN(C)S(=O)(=O)c1cccc(NC(=O)c2ccc3c(c2)OCCO3)c1 | -19% | -3%
77 | O=S(=O)(Nc1cc(Cl)ccc1-n1cncn1)c1ccccc1Cl | -13% | i
78 | CCN(CC)C(=O)Cn1c(=O)n(Cc2ccc(F)cc2)c(=O)c2sccc21 | -8% | i
79 | Cc1ccc(-c2cn3cccnc3n2)cc1NC(=O)Cc1ccccc1 | 5% | i
80 | O=S1(=O)CCN=C2SC3=C(CCCC3)N21 | -3% | -27%
81 | CNC(=S)N/N=C/c1cn(CCOc2ccccc2OC)c2ccccc12 | 7.1µM* | 4.5µM*
82 | O=C(NCC(c1cccs1)S(=O)(=O)c1cccs1)c1ccc(Cl)cc1 (configuration not stated) | 6% | -3%
83 | CC(=O)Nc1ccc(Br)c(Cl)c1 | -12% | -9%
84 | COC(=O)C1=C(C)NC(C)=C(C(=O)OC(C)C)C1c1cccc2nonc12 (configuration not stated) | -17% | -4%
85 | CC(=O)c1cccc(S(=O)(=O)Nc2ccc3nc(C)sc3c2)c1 | -8% | i
86 | O=C(Cn1ncn2c(cc3ccccc32)c1=O)NCCC1=CCCCC1 | -19% | i
87 | Cc1ccccc1N(C(=O)CCCC(=O)Nc1ccccn1)C(C(=O)NC1CCCC1)c1ccc(O)cc1 (configuration not stated) | -12% | i
88 | O=C(/C=C/c1ccc(O)c([N+](=O)[O-])c1)c1ccc2ccccc2c1 | 0% | -18%
89 | COC(C(=O)Nc1ccc(S(=O)(=O)Nc2cccc3ccccc23)cc1)c1ccccc1 (configuration not stated) | -13% | i
90 | COC(=O)[C@@]1(Cc2ccc(F)cc2)[C@H]2c3cc(C(=O)N(C)C)n(Cc4ccc(Cl)c(C(F)(F)F)c4)c3C[C@H]2CN1C(=O)c1ccccc1 | -15% | ?
91 | CC(=O)N1CCc2cc(S(=O)(=O)NCC(=O)NCc3ccc(F)cc3)ccc21 | -20% | i
92 | Cc1ccc(C)c(N(C)C(=O)Cc2c(C(=O)O)[nH]c3ccc(Cl)cc23)c1 | -9% | -7%
93 | CCOC(=O)C(C(C)C)C(N)Cc1ccc(F)cc1 (configuration not stated) | -18% | -5%
94 | O=C(Nc1ccc(N2CCOCC2)c(Cl)c1)c1ccccc1F | -14% | i
95 | CCN1C(=O)[C@H]2[C@@H](c3ccc(C)cc3)N3C(=O)N(c4cccc(Cl)c4)C(=O)[C@@]3(CC)[C@H]2C1=O | -2% | i
96 | C[C@H](NC(=O)c1[nH]cnc1C(=O)Nc1ccc(Cl)cc1)C(=O)OC(C)(C)C | ? | ?
97 | Cc1ccc(S(=O)(=O)N(C)C)cc1NC(=O)COC(=O)C1COc2ccccc2O1 (configuration not stated) | -2% | 3%
98 | CC(C)(NO)/C(=N\O)c1ccc(Cl)cc1 | -15% | -5%
99 | COc1ccc(/C=C/C(=O)Nc2cc(=O)n(C)c(=O)n2C)cc1 | -19% | -20%
100 | Cc1ccc(-c2nc3cnccn3c2Nc2ccc3c(c2)OCO3)cc1 | -13% | i

(further entries)
no. | Molecule | Vaccinia Venus | Vaccinia mCherry
101 | Cc1[nH]c(=O)[nH]c(=O)c1S(=O)(=O)Nc1ccc(S(N)(=O)=O)cc1 | -10% | -11%
102 | CCc1ccc(S(=O)(=O)NC(=S)Nc2ccccc2)cc1 | 5% | -7%
103 | Cc1ccc(-n2ncc3c(N4CCN(CCO)CC4)ncnc32)cc1Cl | -4% | -7%
104 | CC(C)(C)N1CC(C(=O)Nc2cccc(Cl)c2Cl)CC1=O (configuration not stated) | -13% | -10%
105 | Cc1ccnc(NC(=O)CCC(=O)N(CC(=O)NCc2ccc(F)cc2)Cc2ccccc2)c1 | -4% | -3%
106 | COC(=O)Nc1nc2ccc(Sc3ccccc3)cc2[nH]1 | ? | ?
107 | C[C@H](CO)N1C[C@H](C)[C@@H](CN(C)C(=O)Nc2ccc(F)cc2)Oc2cc(Br)ccc2S1(=O)=O | -30% | -22%
108 | Cc1ccc(CNC(=O)CCS(=O)(=O)c2ccc3nc(C)sc3c2)cc1 | -10% | -3%
109 | CCc1[nH]nc2c1C(c1ccncc1)C(C#N)=C(N)O2 (configuration not stated) | -8% | -1%
110 | O=C1N/C(=N/N=C/c2ccco2)SC1Cc1ccccc1 (configuration not stated) | -10% | i
111 | Cc1cccc(NC(=S)N/N=C/c2ccc3c(c2)OCO3)c1 | -9% | -15%
112 | Cc1cc(NC(=O)CSc2nnc(Cc3cccn3C)n2CCc2ccccc2)no1 | -11% | -11%
113 | COC(=O)c1cc(NC(=O)c2c(C)noc2C)ccc1N1CCOCC1 | -9% | -22%

Rewritten with each value named: three of the compounds above.
(112) Cc1cc(NC(=O)CSc2nnc(Cc3cccn3C)n2CCc2ccccc2)no1
  Vaccinia Venus: -11%; Vaccinia mCherry: -11%

(111) Cc1cccc(NC(=S)N/N=C/c2ccc3c(c2)OCO3)c1
  Vaccinia Venus: -9%; Vaccinia mCherry: -15%

(109) CCc1[nH]nc2c1C(c1ccncc1)C(C#N)=C(N)O2 (configuration not stated)
  Vaccinia Venus: -8%; Vaccinia mCherry: -1%
